GIV Gai3 FP: blocks GIV peptide binding to rat Galpha-i3; Galpha-i3/FITC-GIV peptide fluorescence polarization, 90 min; hits give low values; scaled: aluminum fluoride 0%, vehicle 100%; percent of control (FP), % (concentration not given with the values); 210,000 compounds, 0.42% hits; P08753;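 active = replicate mean at 85% of control or lower, very high polarization wells dropped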;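 also: wells of about 15 µL received 100 nL stock; the first replicate is given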
Target sequence (P08753 whole entry, looked up): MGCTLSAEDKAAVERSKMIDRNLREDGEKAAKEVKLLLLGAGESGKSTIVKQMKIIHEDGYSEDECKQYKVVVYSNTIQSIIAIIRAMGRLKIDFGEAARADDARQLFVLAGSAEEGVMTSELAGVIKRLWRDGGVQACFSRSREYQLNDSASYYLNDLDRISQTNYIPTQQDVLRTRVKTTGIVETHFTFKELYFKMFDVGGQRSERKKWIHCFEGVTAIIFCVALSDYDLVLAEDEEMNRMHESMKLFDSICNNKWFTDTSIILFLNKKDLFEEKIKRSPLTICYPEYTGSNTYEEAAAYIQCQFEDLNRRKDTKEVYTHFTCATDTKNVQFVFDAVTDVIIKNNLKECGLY
Sa growth inh: inhibitors of Staphylococcus aureus growth at 42 °C | relative growth, % (concentration not given with the values) | 170,000 compounds, 0.53% hits | S. aureus RN4220 growth, OD600, 20 h; hits give low values;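 active = growth at 42 °C up to 50% and 20 or more points under that at 30 °C, or under 10% at both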;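 also: 300 nL library stock went into each well; scaled to the means of positive and negative controls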
HCMV NEC inh: cytomegalovirus nuclear egress complex inhibition | HTRF UL50-UL53 interaction, normalized percent inhibition | inhibition, % (no concentration beside the values) | 190,000 compounds, 0.15% hits | AID 1918969;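 active = both replicates at 50% or more, plus weaker picks with an unusually low signal ratio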;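 also: stock transfer was 100 nL into about 20 µL; 0% = negative control wells and 100% = wells with untagged competitor protein; inactives centre near -12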
Sa growth inh second temp: further read-out of Sa growth inh, marked with its call; relative growth, %; measured here: growth at 30 °C;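 optical density after 20 h as mean of two plates; 100% = untreated growth and lower means inhibition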
Numbers without * were called inactive; . = no result given; & = joins results of further samples.

SMILES | GIV Gai3 FP | Sa growth inh | Sa growth inh second temp | HCMV NEC inh
Cc1cccc(NS(=O)(=O)c2ccc3c(c2)[C@H]2C=CC[C@H]2[C@@H](c2ccc(F)cc2)N3)c1 | 114 | 92 | 86 | -38
Cc1ccc2oc(-c3ccc(C)c(NC(=O)c4ccc5c(c4)OCCO5)c3)nc2c1 | 100&105 | 83 | 87 | -32&-6
O=C(c1cccc(F)c1)N1CCc2nc(-c3ccccc3)sc2C1 | 95 | . | . | -18
O=C(CSc1nc2c([nH]c3ccccc32)c(=O)n1-c1ccc(F)cc1)N1CCc2ccccc21 | 99 | 102 | 91 | .
CC(C)n1c(CN2CCN(C)CC2)nc2cc(NC(=O)C3CCCCC3)ccc21 | 100 | . | . | -10
O=C(/C=N/O)c1ccc(Cl)cc1Cl | 107 | 130 | 117 | -15
CC1CCCN(C(=O)CCS(=O)(=O)c2cc3c(cc2Cl)NC(=O)CO3)C1 (centres undefined) | 103 | 117 | 94 | .
Cc1nn(-c2ccccc2)c2c1C(c1ccc3c(c1)OCO3)C(C#N)C(=O)N2 (centres undefined) | . | 64 | 43 | -22
COc1cc(Cl)c(C)cc1NC(=O)c1cn(CC(C)C)c(=O)c2cc(OC)c(OC)cc12 | 105 | 94 | 94 | -43
CC(=O)Nc1nc(C)c(C(C)C)s1 | . | 110 | 88 | -11
COc1cccc(NC(=O)c2c(C)oc3ccc(OC)cc23)c1 | 103 | . | . | 5
Cc1cc(C)c(/C=C/c2onc(C)c2S(=O)(=O)N2CCCC(C(=O)N3CCc4ccccc43)C2)c(C)c1 (centres undefined) | 101 | . | . | 1
Cc1c(NC(=O)c2ccc(S(=O)(=O)N3CCCC3)cc2)c(=O)n(-c2ccccc2)n1C | 106 | 105 | 95 | -4
COC(=O)c1c(-c2ccc(F)cc2)noc1N | 105&100 | 97 | 81 | 8&-44
O=C(NCc1ccco1)c1cc(-c2ccccn2)nc2ccccc12 | . | 139 | 81 | -27
Cc1cc(C)c(CC2C(=O)c3ccccc3C2=O)cc1C | . | 99 | 87 | -73
O=C(CSCC(=O)c1ccccc1)c1ccccc1 | 110 | 100 | 96 | 24
CC(=O)Nc1nc(CC(=O)O)cs1 | 108 | 86 | 95 | 0
COc1ccc(CNC(=O)C2CCCN(S(=O)(=O)N(C)c3ccc(F)cc3)C2)cc1OC (centres undefined) | 109 | 105 | 88 | .
CC(Sc1nc2c(N)ncnc2n1CCOc1ccccc1)C(=O)O (centres undefined) | 106 | 104 | 82 | -2
CCOC(=O)c1ccc(NS(=O)(=O)c2cc(Br)cc3c2N(C(C)=O)C(C)C3)cc1 (centres undefined) | 100 | 116 | 94 | -9
CCOc1ccc(NC2c3ccccc3C(=O)N2c2ccc(Cl)cc2)cc1 (centres undefined) | 102 | . | . | -26
CCN(Cc1ccccc1)C(=O)c1cccnc1 | . | 68 | 83 | -16
COc1ccc(-n2ncc(C(=O)Nc3ccc(C)cc3Cl)c2C2CCN(C(=O)OC(C)(C)C)CC2)cc1 | 108 | 87 | 93 | .
Cn1c(-c2ccc3nc(N)sc3c2)nc2cc(N)ccc21 | . | 89 | 75 | 2
Cc1ccc(C)c(CN2CCC(CNC(=O)Nc3ccc(Cl)cc3)CC2)c1 | 104 | . | . | -21
Cc1ccc(NC(=O)Nc2c(C)nn(C)c2C)cc1 | . | 84 | 95 | -5
CCN(c1cccc(C)c1)S(=O)(=O)c1cc(Br)cc2c1N(C(C)=O)C(C)C2 (centres undefined) | 99 | 101 | 83 | 4
CCOc1ccc(-n2c(CC)nc3c(cnn3-c3ccc(Cl)cc3)c2=O)cc1 | 99 | 95 | 97 | -9
Cc1ccc(N2CC(NC(=O)N3CCN(c4ccc(F)cc4)CC3)CC2=O)cc1C (centres undefined) | 100 | 102 | 100 | -6

A second format for part of the listing above:
CC(=O)Nc1nc(CC(=O)O)cs1
  GIV Gai3 FP: 108 | Sa growth inh: 86 | Sa growth inh second temp: 95 | HCMV NEC inh: 0
COc1ccc(CNC(=O)C2CCCN(S(=O)(=O)N(C)c3ccc(F)cc3)C2)cc1OC (centres undefined)
  GIV Gai3 FP: 109 | Sa growth inh: 105 | Sa growth inh second temp: 88 | HCMV NEC inh: .
CC(Sc1nc2c(N)ncnc2n1CCOc1ccccc1)C(=O)O (centres undefined)
  GIV Gai3 FP: 106 | Sa growth inh: 104 | Sa growth inh second temp: 82 | HCMV NEC inh: -2
CCOC(=O)c1ccc(NS(=O)(=O)c2cc(Br)cc3c2N(C(C)=O)C(C)C3)cc1 (centres undefined)
  GIV Gai3 FP: 100 | Sa growth inh: 116 | Sa growth inh second temp: 94 | HCMV NEC inh: -9

Next section
SMILES | GIV Gai3 FP | Sa growth inh | Sa growth inh second temp | HCMV NEC inh
CN(CC(=O)NC1CCCC1)S(=O)(=O)c1cc(Br)cnc1N | 101 | 105 | 79 | .
CCC(C)(C)C1CCc2c(sc(NC(=O)C3c4ccccc4Oc4ccccc43)c2C(N)=O)C1 (centres undefined) | 106 | 100 | 103 | 0
O=C(CSc1nccn1-c1cccc(F)c1)N1CCN(c2ccc(O)cc2)CC1 | . | 96 | 99 | 13
NC1=NC(=O)/C(=C/c2cccs2)S1 | 106 | 120 | 107 | -63
CC(C)(CC(=O)O)CC(=O)N1CCCN(c2c(Cl)cncc2Cl)CC1 | 103 | 97 | 78 | -18
COc1ccc(N2CCN(CCCNC(=O)c3nnc(Cc4ccc(F)cc4)o3)CC2)cc1 | 107 | 85 | 98 | 14
FC(F)(F)c1ccnc(NCCNc2nccc(C(F)(F)F)n2)c1 | 98 | 101 | 85 | -5
CN(C)Cc1ccc(C(=O)NN)o1 | . | 92 | 93 | -10
c1ccc(Nc2nc3ccccc3[nH]2)nc1 | . | 0.9* | 0.2* | -14
COc1ccccc1Cc1nc2ccccc2nc1SCC(=O)Nc1cccc(Cl)c1C | 102 | 76 | 88 | .
O=C(O)CSc1nc2cc(N3CCOCC3)c(F)cc2[nH]1 | 97 | 100 | 102 | 16
O=C(CSC1CCCC1)N1CCCC1 | . | 91 | 74 | -29
COc1cc(/C=C2\SC(=S)N(CCC(=O)Nc3ccc(C(C)=O)cc3)C2=O)cc(OC)c1OC | 100 | . | . | -11
COCc1cc(C)nc(OCC(=O)OC)c1C#N | 101 | 111 | 72 | -7
CC(=O)Nc1nonc1-c1nnc(SCC(=O)Nc2c(C)cccc2C)n1-c1ccccc1 | 103 | 104 | 81 | -33
CC1C(O)=C(c2nc3ccccc3[nH]2)c2nc(=O)c3ccccc3n21 (centres undefined) | . | 54 | 62 | 2
O=C(CN1CCCCC1)N1N=C(c2cccs2)CC1c1ccc(O)cc1 (centres undefined) | 104 | 108 | 85 | -48
O=C1S/C(=C/c2ccccc2)C(=O)N1CO | 96 | 98 | 31 | -83
CCOC(=O)CSc1nnc2ccccn12 | . | 89 | 98 | -3
Cc1ccc(NC(=O)Nc2ccccc2OCc2cc(=O)n3c(ncn3C(C)C)n2)cc1 | 101 | . | . | 8
COc1cc(C2C(C(=O)Nc3ccccn3)=C(C)Nc3ncnn32)ccc1OCc1ccccc1 (centres undefined) | 103 | . | . | -21
COc1ccc(Cl)cc1NC(=O)Cn1c(NCC(C)O)nc2ccccc21 (centres undefined) | . | 100 | 90 | -11
CC(=O)Nc1ccc(C(=O)CSc2nnc(-c3ccoc3)c(-c3ccoc3)n2)cc1 | 109 | 89 | 43 | -33
CN1C(=O)N(C)C2C1N(C)S(=O)(=O)N2C (centres undefined) | 102 | 89 | 117 | 21
O=C(Nc1cccnc1N1CCOCC1)c1cc2ccccc2oc1=O | 100 | 116 | 90 | -44
Cc1cc(=O)n(Cc2ccc(F)cc2Cl)c2c1c(C)nn2C | 94 | 80 | 90 | .
O=c1[nH]ncc(NCCCc2ccccc2)c1Cl | . | 89 | 92 | -28
CC(C)NC(=S)N=Nc1c(O)[nH]c2ccc(C(C)C)cc12 | . | 92 | 82 | 4
O=C(COC(=O)C1CCC(=O)N1)Nc1ccc(Cl)cc1Cl (centres undefined) | . | 107 | 87 | -16
Cc1ccc(NC(=O)Nc2nnc(N3CCCC3)s2)cc1C | 103 | 126 | 101 | -17
O=C1CCCN1c1ccc(S(=O)(=O)NCC2CCCO2)cc1 (centres undefined) | 109 | . | . | -10
COc1ccc(NC(=O)C2CCCN2S(=O)(=O)c2cccc3cccnc23)cc1OC (centres undefined) | 105 | 105 | 83 | -9
COc1cc(OC)cc(C(=O)Nc2cc3c(cc2N2CCOCC2)n(C)c(=O)n3C)c1 | 103 | 107 | 95 | 2
Cc1ccc(CCNC(=O)CNC(=O)C2(C)Cn3c(cc4ccccc43)C(=O)N2C)cc1 (centres undefined) | 101 | . | . | -6
Cc1ccc(-c2cc(C(=O)N(C)Cc3cnn(C)c3C)c3cc(Br)ccc3n2)cc1 | 100 | . | . | -8
CC(=O)NS(=O)(=O)c1ccc(NC(=O)Cn2cnc3c2c(=O)n(C)c(=O)n3C)cc1 | 107 | 89 | 91 | 5
O=C(CN1C(=O)NC(Cc2c[nH]c3ccccc23)C1=O)c1ccc(F)cc1 (centres undefined) | . | 99 | 90 | -20
CC(=O)Nc1ccc(/C=N/OCC(=O)Nc2ccc(C)cc2)cc1 | . | 72 | 82 | -17
O=C(CSc1nccn1C1CCCC1)Nc1cccc(F)c1 | 107 | 115 | 101 | .
Cc1ccc(CN2C(=O)CCC2C(=O)NC(C)C)cc1 (centres undefined) | 98 | 128 | 85 | .
COc1ccnc(C(=O)O)c1 | 101 | 95 | 95 | -24
COC(=O)c1cc(-c2ccc(OC)c(OC)c2)c2c(=O)[nH]c(=O)n(C)c2n1 | 100 | 101 | 85 | -25
Clc1ccc(Cc2nc3c4ccccc4ncn3n2)cc1 | 100 | . | . | -19
Cc1cc(C(=O)CSc2nc3ccc(Cl)cc3[nH]2)c(C)n1Cc1ccco1 | . | 110 | 92 | -23
Cc1ccc(C(=O)c2cn(CC(=O)Nc3ccc(C)cc3Cl)c3nc(C)ccc3c2=O)cc1 | 115 | 89 | 87 | .
O=C(c1c(F)cccc1F)N1CCSCC1 | 106 | 119 | 102 | 4
COc1ccc(N2CC(NC(=O)Nc3ccc(S(=O)(=O)NC(C)=O)cc3)CC2=O)cc1 (centres undefined) | 106 | 91 | 83 | -21
COc1cccc(NC(=O)CNC(=O)Cn2cnc3sc4c(c3c2=O)CCCC4)c1 | 105 | 119 | 99 | .
O=C(NCCc1ccc(Cl)cc1)C1(c2cccs2)CCOCC1 | 98 | 84 | 93 | .
O=C(c1cccc(Br)c1)N1CCc2cc3ccccc3nc21 | 111 | . | . | -1
Cc1cc(Nc2cccc(Br)c2)n2c(nc3ccccc32)c1C#N | 103 | 88 | 86 | -17
COC(=O)c1ccccc1NC(=O)N1CCCc2cc(C)ccc21 | 103 | 100 | 88 | -3
CCc1ccc(CN2CCC(N3CCCCC3)CC2)cc1 | . | 100 | 94 | 6
Cc1ccc2c(c1)sc1nc(=O)n(-c3ccc(Cl)cc3)c(=O)n12 | 110 | 109 | 88 | -36
O=C(CCn1cnc2ccccc2c1=O)Nc1cccc(Cl)c1 | 103 | . | . | -40
O=C1OC(c2ccccc2)OC(=O)C1=C/C=C/c1ccccc1 (centres undefined) | 99 | 114 | 82 | .
CCc1ccc(NC(=O)c2cc(S(=O)(=O)N3CCCC3)ccc2F)cc1 | 103 | 117 | 88 | .
CC(C)(C)OC(=O)N1CCC[C@H]1C(=O)OCc1ccc(Cl)cc1Cl | . | 78 | 62 | -7
Cc1c(Cl)cccc1NC(=O)C1CCN(c2nc3ccccc3[nH]2)CC1 | 102 | 90 | 72 | .
CCC(C(=O)N(CC)c1ccccc1)n1cnc2nc3c(cc2c1=O)CCCC3 (centres undefined) | 113 | . | . | -3

Exported field by field: four of the compounds above
> CCc1ccc(CN2CCC(N3CCCCC3)CC2)cc1
  GIV Gai3 FP = .; Sa growth inh = 100; Sa growth inh second temp = 94; HCMV NEC inh = 6

> O=C(c1c(F)cccc1F)N1CCSCC1
  GIV Gai3 FP = 106; Sa growth inh = 119; Sa growth inh second temp = 102; HCMV NEC inh = 4

> O=C(CCn1cnc2ccccc2c1=O)Nc1cccc(Cl)c1
  GIV Gai3 FP = 103; Sa growth inh = .; Sa growth inh second temp = .; HCMV NEC inh = -40

> O=C1OC(c2ccccc2)OC(=O)C1=C/C=C/c1ccccc1 (centres undefined)
  GIV Gai3 FP = 99; Sa growth inh = 114; Sa growth inh second temp = 82; HCMV NEC inh = .

More structures.
SMILES | GIV Gai3 FP | Sa growth inh | Sa growth inh second temp | HCMV NEC inh
CCN(CC)C(=O)Cn1c(=O)n(CC2CCC(C(=O)NC)CC2)c(=O)c2sccc21 (centres undefined) | 104 | 92 | 101 | .
CC1CCCCC1NC(=O)CCCn1ncn2c(cc3occc32)c1=O (centres undefined) | 94 | 99 | 81 | .
CCC(=O)N1CCc2cc(S(=O)(=O)NC(Cc3ccccc3)C(=O)NCc3ccc(C)cc3)ccc21 (centres undefined) | 106 | 114 | 70 | 9
COc1ccc(C2c3cccn3-c3sc4c(c3CN2C(=O)NC(C)C)CCN(C)C4)cc1 (centres undefined) | 113 | . | . | -5
Cn1/c(=N/N=c2\oc3ccccc3n2C)oc2ccccc21 | 107 | 95 | 98 | -10
CCOC(=O)N1CCC(n2c(SCC(=O)Nc3nccs3)nc3ccsc3c2=O)CC1 | 100 | 108 | 81 | -22
C/C(N)=C(/C#N)C(=O)Cn1nc(C(=O)O)c2ccccc2c1=O | . | 82 | 98 | -10
CCCn1c(SCCCC(=O)c2cccs2)n[nH]c1=O | . | 101 | 89 | -14

Screening data (PubChem)
